# Screening data as filed in PubChem.
# Six1-Eya2 inh = inhibitors of human Six1/Eya2 interaction. AID 651725. activity change, % (concentration not given with the values). 360,000 compounds, 0.56% hits. Q15475+O00167. AlphaScreen GST-Six1/His-Eya2 binding, biochemical; stronger effect = lower value; control for the full effect not named in the record; in the data active = activity change below about -65%; inconclusive = about -30% to -65%; inactive = above about -30%; also: % is scaled to controls: 0 for no effect and ±100 for the full control effect
#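 Compounds are tested against tagged Six1 and Eya2 proteins bridged by glutathione donor and nickel acceptor beads; after a one-hour incubation at 37 °C without light, AlphaScreen emission is recorded.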
# PINK1 expr mod = modulators of PINK1 expression. PINK1 immunofluorescence, high-content cytometry, 24 h. Potency, µM (series often up to 76.6 µM), for inactives: top-dose activation (PINK1 increase), most hits filed as activators. 410,000 compounds, 0.2% hits. AID 624263; active = well fitted activation curve with a large enough effect; inconclusive = small, poorly fitted or top-dose-only effect; inactive = flat fitted curve, though single readings scatter; cell line not stated here;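 also: potency is read from the fitted curve at half-maximal effect; % of control where 0% means no effect; nearly all actives have a fitted effect of over 65% in size; a mitochondrial uncoupler was the plate control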
#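 Fluorescence from anti-PINK1 antibody, together with nuclear and cell stains, was scanned on a laser-scanning cytometer. Before staining, stable-line cells were incubated 24 hours with compounds at 5 concentrations; primary antibody 12 h at 10 degrees C.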
# TRPV1 PAM = potentiators of human vanilloid receptor 1 (TRPV1) | 320,000 compounds, 0.02% hits | AID 540277 | potentiation, % at 8.33 µM | Q8NER1 | TRPV1-expressing cells, Fluo-8 calcium influx, capsaicin EC20 potentiation; host cell line not named in the record; control for the full effect not named in the record; active means potentiation above 80%; inconclusive means 30% to 80%; inactive means below 30%; also: 0% is about no effect
#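 Fluo-8 calcium influx in TRPV1-expressing cells, kinetic read (ex 480/em 520 nm). Compound added and read 3 min for agonist activity, followed by capsaicin at EC20 final and 2 min further read for enhancement.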
# D2 ag = human D2 receptor agonism in beta-arrestin assay | activation, % (concentration not given with the values) | 360,000 compounds, 0.084% hits | P14416 | DiscoveRx PathHunter D2 beta-arrestin, luminescence, 90 min; 100% = 57 uM dopamine signal; in the data active = activation above about 40%; inconclusive = about 15% to 40%; inactive = below about 15%; also: the text of the record calls up to 30% inactive
# Target sequence (P14416 whole entry, looked up): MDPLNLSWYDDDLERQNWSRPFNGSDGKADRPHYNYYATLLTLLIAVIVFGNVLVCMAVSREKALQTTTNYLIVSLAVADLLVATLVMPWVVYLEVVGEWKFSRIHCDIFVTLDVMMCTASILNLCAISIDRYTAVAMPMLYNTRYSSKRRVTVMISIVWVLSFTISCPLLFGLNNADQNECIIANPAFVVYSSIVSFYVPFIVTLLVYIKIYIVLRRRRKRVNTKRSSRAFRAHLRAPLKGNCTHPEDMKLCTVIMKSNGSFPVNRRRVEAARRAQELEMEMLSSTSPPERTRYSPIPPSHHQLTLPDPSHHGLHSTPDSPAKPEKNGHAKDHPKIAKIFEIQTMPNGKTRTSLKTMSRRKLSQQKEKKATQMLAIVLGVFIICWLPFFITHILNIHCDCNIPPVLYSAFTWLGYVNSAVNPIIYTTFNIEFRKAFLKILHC
#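 Agonist mode: compounds alone added to overnight-plated D2 PathHunter cells for 90 min at 37 C, with 57 uM final dopamine (EC100) defining full response. Beta-arrestin recruitment detected by chemiluminescent reagent, read after 1 h at ambient temperature.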
# CtBP-E1A blk = blocks the CtBP interaction with E1A. AlphaScreen GST-E1A/His-CtBP binding, 1536-well; stronger effect = lower value; control for the full effect not named in the record. activity change, % (no concentration beside the values). 340,000 compounds, 0.49% hits. AID 651724; in the data active means activity change below about -65%; inconclusive means about -30% to -65%; inactive means above about -30%; also: % is scaled to controls: 0 for no effect and ±100 for the full control effect
#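 Homogeneous bead-based format: GST-tagged E1A captured on glutathione donor beads, His-tagged CtBP on nickel acceptor beads; compounds precede bead addition by 2 h at 37 °C.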
# D2 potentiator = positive allosteric modulators of human D2 dopamine receptor | P14416 | DiscoveRx D2 beta-arrestin cells, luminescence, 90 min; 100% = 57 uM dopamine signal | potentiation, % (no concentration beside the values) | 360,000 compounds, 0.23% hits | AID 624464; active = potentiation of 50% or more; inconclusive = 30% to 50%; inactive = 30% or less;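 also: compound concentration not given in the record; tested on top of an EC20 dose of dopamine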
#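 D2 cells co-treated with compound plus 50 nM dopamine (EC20) for 90 min at 37 deg C to detect potentiation. Beta-arrestin recruitment was read as enzyme-fragment luminescence after 1 h at ambient temperature. Full response was set by 57 uM dopamine.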
# Sfp PPTase inh = Sfp phosphopantetheinyl transferase inhibition | Q9F4F7 | Biochemical Sfp PPTase activity, qHTS | Potency, µM, for inactives: max response, negative = inhibition, hits mostly inhibitors | 310,000 compounds, 3.5% hits | AID 1490; active = well fitted inhibition curve with a large enough effect; inconclusive = small, poorly fitted or top-dose-only effect, or another doubt; inactive = no such curve, though single readings can be large or run the other way;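 also: the enzyme is Sfp with the accession as filed and its product quenches rhodamine fluorescence; potency is read from the fitted curve at half-maximal effect; 0% = enzyme reaction without inhibitor and -100% = no enzyme wells; top concentration of the series not given in the record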
#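 Reaction rates are the 30-min fluorescence difference (ex 525, em 598 nm) in wells containing 15 nM Sfp, 5 uM rhodamine-CoA and 12.5 uM BHQ-2-YbbR at pH 7.6 with 10 mM MgCl2.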
# * = called active by the depositor; u = inconclusive; x = not tested or not shown; [ ] = remark or other dose.
SMILES,Six1-Eya2 inh,PINK1 expr mod,TRPV1 PAM,D2 ag,CtBP-E1A blk,D2 potentiator,Sfp PPTase inh
Cc1ccc(N/C(CSC(N)=O)=N/S(=O)(=O)c2ccccc2)cc1,4,-0.7%,2,-1.7,0,8,11%
CC(C)(C)c1csc(NC(=O)CSc2nc3ccccc3c(=O)[nH]2)n1,-2,6.8%[38.3 µM],17,-1.9,0,-9,5%
CCn1c(CCC(N)=O)nnc1SCC(=O)Nc1cccc(S(=O)(=O)N2CCCC2)c1,-3,-1.0%,16,-4.5,5,-2,x
CCCCNC(=O)CSc1nccn1Cc1ccccc1,2,x,u,-0.9,7,1,4%
CN(C)CCNC(=O)c1cccc(S(=O)(=O)Nc2ccc(F)cc2)c1,-1,0.2%,-16,-1.6,2,-15,0%
CC(C)(C)C(=O)/C=C1\SCC(=O)N1CC(=O)N1CCN(c2ccccc2)CC1,-2,1.1%,x,-3.6,2,1,x
COc1ccccc1CN1CCC(CNS(=O)(=O)c2cc(-c3cc(C)no3)ccc2OC)CC1,-9,-1.2%,6,-3.9,-5,-35,8%
Cc1cc(C)cc(NC(=O)CN2CCN(c3ccccc3)CC2)c1,-15,0.4%,19,0.2,x,-17,-2%
Cc1cc(C)cc(NC(=O)CSc2nc3[nH]c(=O)cc(O)c3s2)c1,4,-2.4%,10,1.8,5,-4,u
CC1CN(S(=O)(=O)N(C)C)CCN1S(=O)(=O)N(C)C (stereo not drawn),1,2.5%[38.3 µM],4,-0.2,1,5,11%
O=C(Nc1ccc(S(=O)(=O)NCc2cccnc2)cc1)c1ccccc1Cl,-1,2.5%,-6,2.3,3,-4,20%
O=C(Nc1ccc(-n2cnnn2)cc1)C(c1ccccc1)c1ccccc1,4,2.2%,-6,-4.5,8,-3,16%
CCn1ccc(C(=O)N2CCOCC2)n1,-3,0.7%,4,-4.0,9,1,23%
CCNC(=O)NNC(=O)C1CC(c2cccs2)=NO1 (stereo not drawn),1,-0.3%,6,-7.5,-5,-3,-2%
COc1ccc(Cl)cc1NC(=O)CN1CCN(Cc2ccccc2)CC1,-3,2.4%,-26,-1.7,14,-13,9%
COc1cc(C(=O)Nn2c(O)c(C3=c4ccccc4=NC3=O)sc2=S)ccc1O,-5,0.2%,u,-0.9,-2,-4,-13%
CC(=O)Nc1cc(-c2ccc(F)cc2)cn2c(-c3ccc(F)cc3)cnc12,-7,4.3%,x,-5.1,-9,-13,x
COc1ccc(N(CC(=O)N2CCOCC2)S(C)(=O)=O)c(OC)c1,23,-0.6%,-5,-0.6,-11,-5,12%
COc1cccc(CNC(=O)CCC2CCCN(C(=O)c3csc(C(C)C)n3)C2)c1 (stereo not drawn),4,1.0%,-9,-4.0,3,-7,26%
CC(C)(C)C(=O)NC(=S)Nc1ccc(Cl)c(C(=O)O)c1,2,0.5%,3,3.1,10,-2,u
Cc1c(C(=O)Nc2ccccc2N2CCN(C)CC2)oc2ccc(F)cc12,-19,0.9%,-8,-4.9,0,-16,x
O=C(COc1ccccc1Cl)Nc1ccc(C(=O)O)cc1NC(=O)COc1ccccc1Cl,1,-2.8%,2,-7.1,-4,1,2%
COc1cc(C=O)ccc1OCCOCCOc1ccc(Cl)cc1Cl,21,0.9%,x,-0.5,6,-4,x
CO/N=C/CC(=O)c1cnc(-c2ccccc2)s1,-2,0.3%,3,-4.8,-1,-4,13%
CC(=O)c1cccc(NC(=O)COc2ccccc2)c1,3,x,0,-2.2,-13,-3,22%
COc1cccc(NC(=O)Nc2cnccn2)c1,0,-0.6%,11,-2.2,5,-9,8%
O=C(CNC(=O)C(c1ccccc1)c1ccccc1)OCC(=O)c1cccs1,13,2.7%,-1,-4.5,0,-19,2%
NS(=O)(=O)c1cc(C(=O)OCC(=O)Nc2ccc(N3CCCCC3)cc2)ccc1Cl,-15,-0.7%,-8,6.0,-8,-5,11%
CNc1nc(Nc2ccc(C(C)=O)cc2)nc(OC(C(F)(F)F)C(F)(F)F)n1,-3,12%,-10,6.4,0,7,-13%
CSc1ccccc1NC(=O)C1(C)CCN1C(=O)Cc1ccc(Cl)cc1Cl (stereo not drawn),1,2.5%,x,6.3,8,-1,x

# Single records, as listed above. Screens in order: Six1-Eya2 inh, PINK1 expr mod, TRPV1 PAM, D2 ag, CtBP-E1A blk, D2 potentiator, Sfp PPTase inh
# Entry for `CSc1ccccc1NC(=O)C1(C)CCN1C(=O)Cc1ccc(Cl)cc1Cl` (stereo not drawn) : 1, 2.5%, x, 6.3, 8, -1, x
# Entry for `NS(=O)(=O)c1cc(C(=O)OCC(=O)Nc2ccc(N3CCCCC3)cc2)ccc1Cl` : -15, -0.7%, -8, 6.0, -8, -5, 11%
# Entry for `COc1cc(C=O)ccc1OCCOCCOc1ccc(Cl)cc1Cl` : 21, 0.9%, x, -0.5, 6, -4, x
# Entry for `O=C(CNC(=O)C(c1ccccc1)c1ccccc1)OCC(=O)c1cccs1` : 13, 2.7%, -1, -4.5, 0, -19, 2%

# Next structures
SMILES,Six1-Eya2 inh,PINK1 expr mod,TRPV1 PAM,D2 ag,CtBP-E1A blk,D2 potentiator,Sfp PPTase inh
CCOC(=O)C1CCN(C(=O)c2cccc(NS(=O)(=O)c3ccc(Br)cc3)c2)CC1,2,-1.1%,16,-1.6,-12,-6,x
O=C(CSc1nc2nn(-c3ccccc3)c(=O)c-2c2n1CCCCC2)NCCc1ccccc1,0,3.6%,2,-1.4,6,-9,7%
O=C(OCC(=O)N1CCN(c2ccccc2)CC1)c1ccccc1NCCO,-5,0.9%,10,1.4,7,-8,x
Cc1ccc(Nc2nc(C(=O)N3CCC(C(=O)NCCN4CCOCC4)CC3)cs2)cc1,1,0.6%,2,-0.9,-1,-3,-19%
COc1ccc(-c2nc(SC(C)C(=O)NCC3CCCO3)n[nH]2)cc1 (stereo not drawn),-6,3.9%,-19,-0.7,7,-2,x
O=C(NC(=S)Nc1ccccc1Br)c1ccco1,-5,0.9%,u,-6.8,-14,1,16%
CC(C)(C)S(=O)N1Cc2cc(C(=O)NCCCN3CCOCC3)nc(-c3cccc(-c4cc5ccccc5o4)c3)c2[C@H]1CCO (stereo partly drawn),-1,5.1%,x,-4.0,-24,-3,x
O=C(N=C1SC2CS(=O)(=O)CC2N1c1ccc(F)cc1F)C1CC1 (stereo not drawn),2,2.2%,9,-3.7,0,-10,3%
CN(CC(=O)Nc1ccc(F)c(F)c1F)C(=O)CCCSc1nc2ccccc2[nH]1,-3,0.8%,-2,0.2,1,25,x
COC(=O)c1c(NC(=O)C2CC=CCC2C(=O)O)sc(C)c1C (stereo not drawn),-2,0.4%[38.3 µM],9,0.7,2,-8,-27%
Cc1ccc(/C=N/N2CCN(c3ccccn3)CC2)cc1,-21,1.7%,11,-0.9,-11,-8,-2%
Cc1c(C(=O)Nc2ccc(F)c(F)c2)oc2ccc(S(=O)(=O)N3CCCCC3)cc12,6,-0.3%,-4,1.2,9,4,11%
O=C(CSc1ccc(Cl)cc1)N1CCOCC1,3,-1.1%,-3,-3.1,8,-14,14%
OC[C@@H]1CN(Cc2ccc(F)cc2)C[C@H](n2cnc3c(N4CCCC4)ncnc32)O1,-22,0.4%,x,-1.5,-15,-3,x
Cc1ccccc1NC(=O)CSc1ccc(-c2ccc(-n3cccn3)cc2)nn1,8,11%,7,1.1,1,-2,x
CCOC(=O)c1c(NC(=O)/C=C/C(=O)O)sc(C)c1-c1ccc(C)c(C)c1,-6,-3.2%,9,-7.0,x,-17,25µM*
Cc1ccc(C(=O)Cn2c(NCCO)nc3ccccc32)cc1,-15,2.6%,7,-4.3,-9,-8,-1%
COC(=O)Cc1c(C)nc2nc(-c3cccnc3)[nH]n2c1=O,-5,-0.2%,-4,-1.7,1,-3,7%
CC(=O)Nc1ccc(SC[C@H](C)CN2CC[C@H](O)CCC2=O)cc1,2,3.5%,-7,-1.2,3,-1,x
C=CCO/N=C(/C)c1ccc(Oc2cnccn2)cc1,15,1.3%,5,-3.7,8,-11,0%
O=C(Cn1cccc1)Nc1ccc(F)cc1F,0,3.1%[38.3 µM],4,-1.5,-10,-9,6%
O=C(CNC(=O)c1ccccc1)OCCOc1cccc(Cl)c1,0,-0.5%,4,-5.1,1,-33,x
CC(=O)c1cccc(OCC(O)CN2CCN(C(=O)c3ccco3)CC2)c1 (stereo not drawn),-2,-0.8%,5,u,8,2,-11%
CCCC(=O)NC1=C(Cl)C(=O)c2ccccc2C1=O,-4,-1.9%,x,5.6,-4,-10,x
O=C(NCCNC(=O)c1ccccn1)c1ccccc1,13,1.5%,3,-1.9,5,-1,3%
O=C(CSc1nnc(-c2cccnc2)o1)Nc1ccc(Cl)cc1,7,0.6%,-1,-1.6,4,0,-19%
O=C1c2cccc3cccc(c23)C(=O)N1c1ccc2ncccc2c1,3,1.9%,-13,1.6,-2,4,u
CCOc1ccc(S(=O)(=O)N2CCCCC2)cc1NC(=O)C1CSC2(C)CCC(=O)N12 (stereo not drawn),-10,-1.7%,-11,-4.2,6,-68,x
OC[C@@H]1CN(C2CCCC2)C[C@H](n2cnc3c(NC4CCC4)ncnc32)O1,8,-0.3%,x,-2.5,0,-3,x
Cc1c(C(=O)NCC2CCCO2)oc2ccc3c(c12)C(=O)CC(C)(C)O3 (stereo not drawn),2,-1.0%,-15,1.3,1,4,20%
CCC1CCCCN1CCCNC(=O)c1ccc2c(=O)n(CCOC)c(=O)[nH]c2c1 (stereo not drawn),-2,1.6%,-2,-2.4,2,-11,26%
CCCC(=O)Nc1nnc(/C=C/c2ccc(OC)cc2)s1,12,0.6%,-6,-1.7,34,-4,10%
CC(=NOC(=O)c1ccc(F)cc1)c1nccs1,10,-1.2%,x,-5.5,-4,-7,x
CC1CC(C)CN(CCC(=O)Nc2ccc3c(c2)CCC3)C1 (stereo not drawn),3,0.0%,-3,-3.3,2,-7,20%
O=C(NCCCNC(=O)c1ccccc1Cl)c1cnccn1,0,4.4%,4,1.8,-12,-4,21%
Cc1ccc(OCCn2nc3ccccc3n2)c(C)c1,29,1.1%,5,-0.7,36,-11,7%
CC1(C(=O)NS(=O)(=O)c2ccc3ccccc3c2)CCN1C(=O)Cc1ccc(Cl)cc1Cl (stereo not drawn),-5,-0.1%,x,-2.0,-7,1,x
COc1ccc(-c2cc(=O)oc3c(C)c(OCC(=O)NCC4CCC(C(=O)O)CC4)ccc23)cc1 (stereo not drawn),-8,2.8%,18,-4.5,-12,1,-7%
